# Assay outcomes deposited in PubChem BioAssay by National Center for Advancing Translational Sciences (NCATS).
# TRPV1 potentiator: HTS Assay for Compounds that Act as Potentiators of the Vanilloid Receptor 1; TRPV1-expressing cells, Fluo-8 calcium influx, capsaicin EC20 potentiation; host cell line not named in the record; control for the full effect not named in the record; AID 540277, 2011; 320,000 compounds, 0.02% hits; potentiation, % at 8.33 µM; active means potentiation above 80%; inconclusive means 30% to 80%; inactive means below 30%; also: 0% is about no effect
#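 Fluo-8 calcium influx in TRPV1-expressing cells, kinetic read (ex 480/em 520 nm). Compound added and read 3 min for agonist activity, followed by capsaicin at EC20 final and 2 min further read for enhancement.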
# TRPML1 inh: qHTS for Inhibitors of the Human Mucolipin Transient Receptor Potential 1 (TRPML1); AID 624415, 2012; 390,000 compounds, 0.02% hits; Mucolipin-1 (Homo sapiens), Q9GZU1; activity change, negative = inhibition, % (concentration not given with the values); TRPML1-inducible cells, Ca2+ dye fluorescence, FDSS; hits give low values; inhibition of EC80 agonist-evoked calcium signal; in the data active means activity change below about -50%; inconclusive means about -30% to -50%; inactive means above about -30%;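 also: stimulus is agonist 54-4 at its EC80 concentration; % is scaled to controls: 0 for no effect and ±100 for the full control effect; the text of the record puts the active cut at -80%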
# Target sequence (Q9GZU1 whole entry, looked up): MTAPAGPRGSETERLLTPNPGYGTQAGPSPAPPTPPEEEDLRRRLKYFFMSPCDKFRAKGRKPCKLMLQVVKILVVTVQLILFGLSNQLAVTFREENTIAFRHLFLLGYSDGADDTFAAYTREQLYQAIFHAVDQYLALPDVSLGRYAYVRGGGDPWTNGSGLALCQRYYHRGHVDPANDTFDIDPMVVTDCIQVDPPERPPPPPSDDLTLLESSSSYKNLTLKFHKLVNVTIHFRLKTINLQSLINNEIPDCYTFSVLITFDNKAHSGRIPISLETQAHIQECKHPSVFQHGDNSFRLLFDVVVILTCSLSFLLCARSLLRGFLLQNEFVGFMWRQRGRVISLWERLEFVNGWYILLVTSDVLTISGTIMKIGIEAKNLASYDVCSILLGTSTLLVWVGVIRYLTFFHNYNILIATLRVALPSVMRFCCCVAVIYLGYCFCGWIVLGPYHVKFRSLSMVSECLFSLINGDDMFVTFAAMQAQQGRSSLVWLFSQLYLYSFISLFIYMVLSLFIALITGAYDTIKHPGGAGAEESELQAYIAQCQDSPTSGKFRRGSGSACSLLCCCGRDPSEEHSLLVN
#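 Calcium fluorescence in TRPML1-DL cells induced overnight with Tet: a 110 s read after compound pin addition, then a 110 s antagonist read after challenge with 54-4 at 4 uM final (EC80).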
# ClpP mod: qHTS Assay for Activators of ClpP. purified B. subtilis ClpP, FRET peptide cleavage, 20 min. Potency, µM (top dose mostly 57.5 µM), without a hit: at the highest dose activity change, negative = active. 340,000 compounds, 1.9% hits; active = well fitted falling curve with a large enough effect; inconclusive = small, poorly fitted or top-dose-only effect; inactive = no such curve, though single readings can be large or run the other way; also: potency is read from the fitted curve at half-maximal effect; the source files actives as falling curves though it sought activators and does not explain the sign; nearly all actives have a fitted effect of over 65% in size; many hits overshoot -100%
# Target sequence (P80244 whole entry, looked up): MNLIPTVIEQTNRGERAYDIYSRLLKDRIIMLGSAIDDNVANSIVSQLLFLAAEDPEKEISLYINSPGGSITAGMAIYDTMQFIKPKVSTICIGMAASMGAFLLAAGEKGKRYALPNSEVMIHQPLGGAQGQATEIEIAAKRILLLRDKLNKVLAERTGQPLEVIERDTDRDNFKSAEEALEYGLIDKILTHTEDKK
#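 ClpP 10 microg/mL final, pH 8 Tris/KCl buffer with BSA, glycerol, Tween-20; compound pinned in; FRET-FV substrate; RT 20 min; Ex320/Em430; ΔFRET vs ADEP 5.8 microM, DMSO, no enzyme.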
# Sfp PPTase inh: qHTS Assay for Inhibitors of Bacillus subtilis Sfp phosphopantetheinyl transferase (PPTase). Potency, µM, for the others: max response, negative = inhibition, actives largely listed as inhibitors. AID 1490, 2009. 310,000 compounds, 3.5% hits. Biochemical Sfp PPTase activity, qHTS; active = well fitted inhibition curve with a large enough effect; inconclusive = small, poorly fitted or top-dose-only effect, or another doubt; inactive = no such curve, though single readings can be large or run the other way;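 also: the enzyme is Sfp with the accession as filed and its product quenches rhodamine fluorescence; potency is read from the fitted curve at half-maximal effect; 0% = enzyme reaction without inhibitor and -100% = no enzyme wells; top concentration of the series not given in the record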
#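 After 15 min at room temperature with compound, 15 nM Sfp received 5 uM rhodamine-CoA plus 12.5 uM BHQ-2-ybbR (50 mM Hepes pH 7.6, 10 mM MgCl2). Rate came from the fluorescence difference over 30 min, ex 525/em 598 nm.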
# TRPML1 ag: qHTS for Agonists of the Human Mucolipin Transient Receptor Potential 1 (TRPML1). TRPML1-expressing cells, Ca2+ dye fluorescence, FDSS; host cell line not named in the record; reference of the full effect not given here. activation, % (no concentration beside the values). 410,000 compounds, 0.12% hits; in the data active = activation above about 50%; inconclusive = about 30% to 50%; inactive = below about 30%; also: 0% is about no effect; the text of the record puts the active cut at 80%
#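 Agonist activity was taken from a 110 s kinetic Ca2+ dye read on the FDSS after pinning compounds onto TRPML1-DL cells. The cells were seeded at 1,500/well with Tet inducer, incubated about 16 h, then dye-loaded at room temperature.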
# PINK1 expr mod: A Quantitative High throughput Screen to Identify Chemical Modulators of PINK1 Expression | 410,000 compounds, 0.2% hits | PINK1 immunofluorescence, high-content cytometry, 24 h | Potency, µM (series often up to 76.6 µM), inactives show top-dose activation (PINK1 increase), most hits filed as activators | AID 624263, 2012; active = well fitted activation curve with a large enough effect; inconclusive = small, poorly fitted or top-dose-only effect; inactive = flat fitted curve, though single readings scatter; cell line not stated here;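 also: potency is read from the fitted curve at half-maximal effect; % of control where 0% means no effect; nearly all actives have a fitted effect of over 65% in size; a mitochondrial uncoupler was the plate control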
#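 A stable cell line was treated with compounds at 5 concentrations for 24 hours, with CCCP as control. PINK1 levels and mitochondrial localization were measured by immunofluorescence with mitochondrial, cell and nuclear markers after fixation, read by laser-scanning cytometry.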
# Menin-MLL FL inh: qHTS Assay for Inhibitors Targeting the Menin-MLL Interaction in MLL Related Leukemias: Competition With Fluorescein Labeled MLL-derived Peptide. Fluorescence polarization, fluorescein-MLL peptide displacement from menin. 290,000 tested, under 10 active. AID 1766, 2009. FP activity change, % at 61.4 µM; inconclusive = falling polarisation curve, or a change in total fluorescence; inactive = total fluorescence flat and polarisation flat or rising; no compound was filed as active; the % refers to the polarisation; negative = inhibition;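 also: % of control where 0% means no effect; inhibitors lower the polarisation; unlabelled MLL peptide was the positive control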
# Active calls of the source: *; ? = inconclusive; · = not tested or not shown; [ ] = another dose, or the depositor's remark.
SMILES,TRPV1 potentiator,TRPML1 inh,ClpP mod,Sfp PPTase inh,TRPML1 ag,PINK1 expr mod,Menin-MLL FL inh
CCOc1ccc(N(CC(=O)NCc2ccccc2)C(=O)CCC(=O)Nc2nccs2)cc1,2.0,7.6,-2.4%,1.1%,0.6,-1.9%,-3.2
Cc1ccccc1NC(=S)N1CCN(c2ccccc2C)CC1,-10.0,3.3,·,22.0%,-0.7,4.3%,-1.2
CCCCC#Cc1ccc(C(=O)NNC(=O)Nc2cc(Cl)cc(Cl)c2)o1,-0.1,65.4,-8.0%,16.0%,1.3,24.2%,4.1
Cc1cc2oc(C(=O)Nc3sc4c(c3C(=O)NCC3CCCO3)CCCC4)cc(=O)c2cc1C (centres undefined),·,-15.4,-1.6%,·,0.4,0.8%,·
O=C(O)c1cccc(NC(=O)c2ccc3c(c2)C(=O)N(c2cccc([N+](=O)[O-])c2)C3=O)c1,3.1,8.4,-0.1%,8.5%,-0.1,1.9%,-0.5
COc1cc(OC)c(OC)cc1CN1CCN(C(=O)c2cccc3ccccc23)CC1,-0.3,4.8,·,-29.2%,0.2,1.8%,-2.8
O=C1C(=O)N(C2CCNCC2)CCN1Cc1ccccc1,·,-12.1,4.4%,·,-0.3,0.4%,·
CCOC(=O)c1cn2nc(-c3ccc(OC)cc3)cc2nc1C1CCN(C(=O)OC(C)(C)C)CC1,0.9,9.1,-9.5%,6.4%,3.9,1.5%,-2.4
Cc1cc2c(cc1S(=O)(=O)NCc1ccc(F)cc1)n(C)c(=O)c(=O)n2C,·,-12.8,-12.8%,·,2.8,1.9%,·
Cn1cc(CN2CCc3sccc3C2)c(-c2ccccc2F)n1,5.3,12.1,-5.2%,-9.8%,1.1,-0.3%,-0.3
CCOC(=O)CSc1nc(C)c(C(=O)OCC)s1,-15.3,-5.5,-0.8%,-7.4%,1.5,2.1%,-1.0
C=Cc1ccc(Cn2c(C)c(C(=O)NCc3ccc(Cl)c(Cl)c3)sc2=O)cc1,·,·,-2.2%,·,0.1,-0.3%,·
CC1(C(=O)Nc2ccc3c(c2)OCCO3)CCN1C(=O)c1cccc(F)c1 (centres undefined),·,·,0.5%,·,-0.4,1.2%,·
CC(=O)OCCNc1nc(-c2ccccc2)nc2ccccc12,-13.8,-11.9,-3.6%,-3.3%,4.7,1.1%,-3.4
CCC1C(C#N)=C(N)OC2=C1C(=O)CC(C)(C)C2 (centres undefined),-2.9,-13.3,-3.7%,0.5%,0.3,-2.3%[38.3 µM],1.5
Cc1ccc(-c2cc(C(=O)Nc3ccc4c(c3)OCCO4)c3ccccc3n2)cc1,-1.5,-2.0,-4.8%,-9.9%,-0.6,-1.0%,-1.0
COc1ccc(/C=C/C(=O)NC2=NCCS2)cc1OC,-6.1,4.1,·,19.5%,0.5,2.9%,-0.7
CC1CCN(S(=O)(=O)c2ccc(NC(=O)c3ccncc3)cc2)CC1,1.9,13.6,1.0%,5.6%,-0.3,1.0%,·
CCCn1nnnc1SCC(=O)Nc1sc(C)c(C)c1C#N,-12.7,14.5,·,50.1µM*,2.0,0.6%,?
CCc1ccc(NC(=O)Cn2nnc(-c3ccccc3N)n2)cc1,·,5.8,-1.1%,·,0.6,1.0%,·
O=C(NCc1ccccn1)c1ccc(Cn2c(=S)[nH]c3ccc(Br)cc3c2=O)cc1,13.5,-2.8,-1.5%,-10.4%,-0.1,8.1%,0.2
COc1ccc(Cc2c(-c3ccc(C)cc3)nc3c4ccccc4ccn23)c(C)c1,·,25.4,4.6%,·,0.5,13.1%,·
COC(=O)[C@@]1(Cc2ccccc2)[C@H]2C(=O)N(C)C(=O)[C@H]2[C@H]2CN=C(SCC(=O)c3ccccc3)N21,·,-9.8,-1.1%,·,3.4,0.6%,·
CN1CCN(Cc2nc3ccccc3c(=O)n2CC#N)CC1,-11.9,-3.2,0.0%,4.7%,0.2,1.9%,1.3
O=C1Nc2ccc(Br)cc2/C1=C/C(=O)c1ccccc1,·,-8.5,0.9%,·,3.9,-6.1%,·
CCCCn1c(=O)c2oc3ccccc3c2n(CC(=O)Nc2cccc(Cl)c2)c1=O,·,-0.7,-24.2%,·,-0.4,0.7%,·
Fc1ccc(-c2cc(C(F)(F)F)nc(N3CCCCC3)n2)cc1,-7.4,25.4,?,-10.0%,0.9,-1.1%,-1.3
CC1(C(=O)NS(=O)(=O)c2cccc(C#N)c2)CCN1C(=O)c1ccccc1CCc1ccccc1 (centres undefined),·,·,0.4%,·,-0.8,1.4%,·
Cc1cccc(N2C(=O)CSC2c2cccnc2)c1 (centres undefined),-2.9,4.8,-1.5%,14.7%,0.3,-5.1%[38.3 µM],-0.8
CCc1ccc(N(C(=O)c2ccco2)C(C(=O)NC2CCCC2)c2ccncc2)cc1 (centres undefined),-7.4,8.4,·,7.6%,1.0,0.5%,-2.3
C=CCNC(=S)N1CCN(S(=O)(=O)c2ccc(C)cc2)CC1,11.2,-10.5,-1.5%,6.9%,-0.5,2.0%,0.9
Cc1ccccc1NC(=O)CCCC(=O)c1ccccc1,-3.1,-12.0,0.7%,15.3%,-1.5,0.3%,-3.1
CN(C)CCn1c2c(c(SCC(=O)Nc3cccc4ccccc34)nc1=O)CCCC2,1.6,-12.7,-23.7%,·,1.4,-0.5%,·
CCCn1c(SCC(=O)Nc2ccccc2-c2ccccc2)nnc1-c1ccoc1C,0.6,17.6,-0.5%,-6.7%,-0.7,0.3%,1.0
CCOc1ccc(NC(=O)C(C)Oc2ccccc2C(=O)Nc2cccc(Cl)c2Cl)cc1 (centres undefined),-4.4,11.7,0.3%,-78.6%,2.1,?,1.4
COCCN(Cc1ccc(F)cc1)C(=O)c1cc2ccccc2oc1=O,16.8,-8.4,-9.0%,18.1%,0.0,2.0%,-3.5
Clc1cccc(-n2ncc3c(NCCc4ccccc4)ncnc32)c1,·,70.8,-13.3%,·,2.4,1.7%,·
Cc1ccc(C(=O)Nc2ccc(C)c(S(=O)(=O)Nc3ccccc3Cl)c2)s1,-9.5,15.7,-10.2%,2.3%,2.3,-2.4%,-1.8
CC(=O)Nc1ccc(C(=O)OCC(=O)NC(=O)NC2CCCCC2)cc1,-2.8,16.3,0.0%,-12.4%,-0.4,0.0%,4.3
COC(=O)C1CCN(c2nc3ccccc3nc2C(C#N)C(=O)NCCc2ccccc2)CC1 (centres undefined),-13.3,13.0,1.3%,-10.1%,0.0,7.2%,1.1
COCCNc1nc(NCc2cnc(C)cn2)c2sccc2n1,·,·,-1.5%,·,-0.6,0.6%,·
C[C@@H]1CN([C@H](C)CO)C(=O)CCCn2cc(nn2)CO[C@H]1CN(C)S(=O)(=O)c1ccc(F)cc1,·,·,-7.4%,·,0.0,0.0%,·
CCC(C)(C(=O)NC1CCCCC1)N(C(=O)CNC(C)=O)c1c(C)n(C)n(-c2ccccc2)c1=O (centres undefined),7.2,8.5,1.6%,-8.8%,-0.3,2.0%,0.3
Cc1ccccc1Oc1nc2c(c(=O)n(C)c(=O)n2C)n1C,13.4,-6.5,0.3%,8.6%,-0.7,1.1%,2.1
CC1=C(C)CS(=O)N(S(=O)(=O)c2ccc(Cl)cc2)C1 (centres undefined),-16.4,6.5,0.2%,3.55µM*,6.6,-2.9%,1.5
Cn1cnnc1SCC(=O)Nc1nc(-c2ccc(F)cc2)cs1,17.3,-13.5,·,14.6%,-1.1,5.0%,-1.6
c1coc(-c2nnc3n2C2(CCCC2)Cc2ccccc2-3)c1,1.8,19.8,?,16.0%,2.8,4.2%[38.3 µM],2.4
O=C(Nc1ccccc1)C1=C[C@H](C2CCCCC2)C[C@H](OCCCCO)O1,·,-4.7,-5.8%,·,0.2,-0.1%,·
O=C(NCCN1CCOCC1)C1CCN(Cc2ccccc2O)CC1,-1.3,-0.2,0.0%,-10.0%,-0.1,-0.6%,0.0
Cc1cc(OC(=O)c2ccccc2C)c([N+](=O)[O-])c(=O)[nH]1,12.0,4.7,1.7%,16.8%,0.4,2.2%,·
O=S(=O)(Nc1ccccn1)c1cnc(Cl)c(Br)c1,-3.3,-2.4,-3.9%,4.9%,0.3,-1.3%,0.3
CCOC(=O)c1nnn(-c2nonc2N)c1CN1CCCC1,-5.1,3.2,·,10.7%,-0.5,0.2%,3.1
N#Cc1nc(Cc2cccc3ccccc23)oc1N1CCN(c2ccccc2)CC1,11.7,0.5,?,-11.4%,-0.2,2.9%[38.3 µM],0.1
CCOC(=O)c1cnc2c(ccc3ccccc32)c1Nc1ccccc1OC,·,14.2,-2.6%,·,-0.5,2.7%,·
CCn1c(SC)nnc1C1CCN(CC(=O)Nc2ccccc2N2CCOCC2)CC1,4.9,-8.9,·,13.8%,0.0,1.4%,6.4
O=C1CCC(=O)N(c2ccccc2)N1,10.4,-9.2,·,-3.3%,-0.6,1.0%,1.9
COc1ccccc1NS(=O)(=O)c1cccc(C(=O)N/N=C/c2ccc([N+](=O)[O-])o2)c1,3.8,18.9,0.4%,·,9.1,?,·
COc1ccccc1CNC(=O)c1ccoc1C,5.2,9.8,-1.0%,-22.9%,2.2,0.6%[38.3 µM],8.5
CCCCNS(=O)(=O)c1ccc2nc(-c3cccnc3)cc(C(=O)NC3CC3)c2c1,26.5,5.4,-0.5%,-0.3%,-0.8,5.9%,3.0
CCOC(=O)c1cnc(-c2ccccc2)nc1Oc1ccccc1,-11.6,1.0,-1.4%,-14.3%,3.0,1.3%,5.7
CC1=CC(C)C(/C=N/N=C(N)N)C(C)C1 (centres undefined),-14.2,-17.2,-2.3%,-14.3%,4.8,3.8%,-6.5
CSc1ccccc1C(=O)NC1CCCc2ccccc21 (centres undefined),-6.7,23.6,·,-8.0%,0.5,0.0%,-0.9
COc1ccc(-c2cn3c(n2)sc2cc(C(=O)NCCc4ccccc4)ccc23)cc1,·,-16.5,-13.5%,·,1.2,3.9%,·

# The order is random; any-hit rate near 4.4%.
